Source: PubChem
Beta apoptosis: beta cell apoptosis inhibition; INS-1E cytokine-induced death, ATP luminescence, 48 h; percent of positive-control rescue, neutral wells zero; protection from apoptosis, % (test concentration not listed); 300,000 tested, 0.8% active;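 active means all replicates at 75% or more, or half of them and the mean; inconclusive means half reach 75% but not the mean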;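 further: 0% = cytokine-treated negative control wells and 100% = positive control rescue; higher means more ATP so stronger rescue from cytokine killing; wells of about 40 µL received 100 nL stock; the first replicate is given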
E coli growth: blocks Escherichia coli growth; OD600 absorbance (test concentration not listed); 330,000 tested, 0.21% active; OD600, 23 h; hits give low values;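 active means OD600 absorbance below the run mean of sample wells minus 3.6 SD, in any replicate, cut at about 0.56 in these data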;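 further: stock transfer was 300 nL into about 60 µL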
Bfl-1 A1 inh: inhibitors of the anti-apoptotic protein A1, read as caspase activation; MEF A1-2A-BIM cells, Caspase-Glo 3/7 luminescence, 3 h; percent of clofoctol response, vehicle zero; caspase activation, % (concentration not given with the values); 330,000 tested, 0.066% active;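 active means over half of replicate activation scores above 10%, or exactly half above 10 with the replicate mean above 10; inconclusive means replicate mean below 10 yet half the replicates above 10; inactive means over half of replicates below 10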;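 further: wells of about 30 µL received 50 nL stock; many hits fall short of the cut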
rRNA inh HTS: inhibits bacterial ribosomal RNA function over humanized ribosomes. GFP signal change (wild-type ribosome), % (test concentration not listed). AID 720706. E. coli WT GFP vs humanized-ribosome RFP mutants, fluorescence, 24 h; hits give low values; DMSO median 0, no signal -100. 350,000 tested, 1.6% active;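 active means significant combined selectivity score with lowered wild-type GFP, culture density cut under 30%, mutant RFP and density less affected; inactive means any of these conditions unmet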; further: one replicate is shown; some compounds called inactive have numbers as strong as hits
T cruzi repl: T. cruzi replication inhibition | T. cruzi beta-gal in NIH3T3, luminescence, 90 h | inhibition, % (no concentration beside the values) | 300,000 tested, 1.4% active | AID 1885;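 active means mean inhibition across valid replicates above about 55%, limit read from the data; inconclusive means mean below that limit but half or more replicates reach it; inactive means mean below it, under half of replicates reach it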;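 further: signal also drops with host cell toxicity which is not excluded here; 0% = plate median of DMSO wells and 100% = zero luminescence signal; higher percent means less beta-gal luminescence so fewer parasites; stock transfer was 50 nL into about 50 µL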
UCH37 DUB inh: blocks the human deubiquitinase UCH37; Q9Y5K5; purified proteasome/UCH37, Ub-AMC cleavage fluorescence; inhibition, % (test concentration not listed); 330,000 tested, 0.33% active;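 active means mean of two replicates above 20%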;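 further: 0% = compound-free wells with enzyme and 100% = wells lacking proteasome; stock transfer was 100 nL into about 20 µL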
Target sequence (Q9Y5K5 whole entry, looked up): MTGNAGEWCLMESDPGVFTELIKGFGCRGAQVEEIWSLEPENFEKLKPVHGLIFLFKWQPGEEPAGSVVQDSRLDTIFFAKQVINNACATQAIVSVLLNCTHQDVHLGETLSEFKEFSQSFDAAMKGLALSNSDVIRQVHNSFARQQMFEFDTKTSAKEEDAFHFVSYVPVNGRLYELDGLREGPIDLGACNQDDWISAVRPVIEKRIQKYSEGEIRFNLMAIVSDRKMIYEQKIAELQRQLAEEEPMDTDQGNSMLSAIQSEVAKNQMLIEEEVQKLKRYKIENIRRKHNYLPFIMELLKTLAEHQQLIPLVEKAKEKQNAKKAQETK
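Reagent: Ub-AMC substrate; assay system: Proteasome-associated human UCH37 deubiquitinase; controls: no-proteasome and no-compound wells; read-out: % inhibition of Ub-AMC cleavage fluorescence; timing: 30 min preincubation with enzyme, 25 min cleavage at room temperature; signal: AMC fluorescence from Ub-AMC cleavage, excitation 355 nm, emission 460 nm; buffer or medium: Tris-HCl pH 7.4 plus ovalbumin, ATP-MgCl2, DTT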
MLL AF4-AF9 inh: inhibitors of human MLL-AF4/AF9 interaction. 350,000 tested, 0.47% active. AlphaScreen, biotin-AF4 peptide binding to FLAG-AF9. AID 651704. inhibition, % at 10 µM. P42568;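 active means every replicate reaching a set inhibition limit, whatever the replicate mean, cut at about 25% in these data; inconclusive means mean inhibition reaches that limit but some replicates miss it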;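 further: 0% = plate neutral control median and 100% = total signal loss; the record names both 10 and 1 µM as test concentration; the first replicate is given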
Target sequence (P42568 whole entry, looked up): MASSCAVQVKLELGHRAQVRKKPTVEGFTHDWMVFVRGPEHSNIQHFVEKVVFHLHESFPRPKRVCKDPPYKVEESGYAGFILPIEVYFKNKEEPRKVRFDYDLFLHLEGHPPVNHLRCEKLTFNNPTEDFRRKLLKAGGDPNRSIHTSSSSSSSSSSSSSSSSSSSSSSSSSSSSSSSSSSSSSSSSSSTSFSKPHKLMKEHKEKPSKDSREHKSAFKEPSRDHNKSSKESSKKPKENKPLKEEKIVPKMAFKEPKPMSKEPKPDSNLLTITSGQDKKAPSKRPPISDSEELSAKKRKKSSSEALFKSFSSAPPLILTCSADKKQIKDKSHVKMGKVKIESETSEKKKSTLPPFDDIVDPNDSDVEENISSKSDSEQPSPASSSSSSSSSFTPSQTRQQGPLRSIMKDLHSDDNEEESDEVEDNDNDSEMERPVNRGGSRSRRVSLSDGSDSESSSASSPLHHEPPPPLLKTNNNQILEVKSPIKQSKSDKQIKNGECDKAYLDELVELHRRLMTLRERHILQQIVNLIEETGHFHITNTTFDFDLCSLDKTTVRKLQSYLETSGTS
FGF22 binding: binders of recombinant human FGF22 by thermal shift. calls only at 9.99 µM. AID 651658. 340,000 tested, 1.5% active. SYPRO orange fluorescence; percent of sucrose octasulfate shift, DMSO zero. Q9HCT0;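 active means melting point raised past a set limit in the mean and every replicate; inconclusive means no clear call; three in four hits are not shown here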
Target sequence (Q9HCT0 whole entry, looked up): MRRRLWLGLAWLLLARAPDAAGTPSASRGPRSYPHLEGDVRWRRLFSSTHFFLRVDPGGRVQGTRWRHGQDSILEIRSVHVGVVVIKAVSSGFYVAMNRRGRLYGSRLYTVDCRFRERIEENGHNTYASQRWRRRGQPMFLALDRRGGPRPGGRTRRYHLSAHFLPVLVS
rRNA inh HTS OD600: recorded beside rRNA inh HTS, whose call it bears; OD600 change, %; measured here: OD600 growth;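 optical density of the mix in the first replicate; 0 = DMSO median and -100 = no signal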
rRNA inh HTS RFP: second read-out of rRNA inh HTS, no call of its own (marks repeat the call); RFP signal change, %; measured here: RFP humanized mutant strains;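 first replicate; 0 = DMSO median and -100 = no signal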
Numbers without * were called inactive; i = inactive; u = inconclusive; x = not tested or not shown; + = active, no number. A portion of the library; count on the stated rates, not on these rows.

SMILES	Beta apoptosis	E coli growth	Bfl-1 A1 inh	rRNA inh HTS	rRNA inh HTS OD600	rRNA inh HTS RFP	T cruzi repl	UCH37 DUB inh	MLL AF4-AF9 inh	FGF22 binding
O=C(CSc1ncn(-c2ccccc2)n1)Nc1ccc2c(c1)OCCO2	2	0.73	0.4	x	x	x	5	3.2	x	x
COC(=O)C1=C(C)N(CCc2c[nH]c3ccc(OC)cc23)C(=O)C1	-3	0.72	1.8	6	12	-0.8	-9	6.1	8.4	i
COC(=O)c1ccc(OCC(O)CN(CC(C)C)CC(C)C)cc1 (centres undefined)	-5	0.76	0.5	x	x	x	-11	3.9	x	x
O=C1C(=O)N(CCN2CCOCC2)C(c2ccccc2)/C1=C(\O)c1ccc2c(c1)OCCO2 (centres undefined)	-3	0.72	0.0	8	16	-0.4	3	7.2	-2.1	i
O=C(CCc1nc(-c2ccccc2)no1)NCc1ccccc1CN1CCOCC1	0	0.6	-1.4	7	3	0.9	x	5.1	1.7	i
COC(=O)c1ccc(NC(=O)CSCc2ccccc2C)cc1	-7	0.74	-0.5	-50	-76	-33	-10	5.6	-23	i
O=C(NCCc1ccc(S(=O)(=O)N2CCCC2)cc1)c1cccs1	-7	0.68	-0.3	x	x	x	-7	1.0	x	x
CCn1nnc(NC(=O)c2cccnc2)n1	-8	0.7	-0.5	x	x	x	-4	5.9	x	x
CCC1NC(=O)c2cc(S(N)(=O)=O)c(Cl)cc2N1 (centres undefined)	-3	0.71	1.1	4	1	1.7	x	-16	0.0	i
CCCCC(c1nnnn1C1CCCC1)N1CCN(C2CCCC2)CC1 (centres undefined)	x	0.66	0.6	x	x	x	-32	5.8	x	x
CC(Sc1nc(N)cc(=O)[nH]1)C(=O)Nc1cccc(Cl)c1 (centres undefined)	-1	0.69	0.0	x	x	x	-5	3.8	x	x
Cc1ccccc1CS(=O)(=O)c1ccc(C(=O)N2CCOCC2)cc1[N+](=O)[O-]	-35	0.69	1.0	-8	5	0.0	-1	5.7	0.3	i
Cn1cc(C(=O)NCC(=O)Nc2ccccc2Br)cn1	1	0.68	1.4	13	15	0.9	x	2.5	1.1	i
Cc1ccc(Sc2ncccc2C(=O)O)cc1C	0	0.69	0.5	12	3	-4.3	-19	2.2	u	i
CC(C)C(=O)Nc1ccc(-c2nnc(-c3ccccc3)o2)cc1	-2	0.7	-13	9	18	-0.7	4	-69	0.6	i
CCOC(=O)Cn1nc2sc3ccccc3n2c(=O)c1=O	x	0.67	-0.2	8	-19	-2.6	-10	-0.9	3.3	i
COc1cccc(NC(=S)N(CCc2c(C)[nH]c3ccc(C)cc23)Cc2cccs2)c1	-7	0.8	0.1	1	-1	1.9	12	2.7	-3.8	i
CCOC(=O)c1ccc(NC(=O)CC2S/C(=N/N=C3/NC(=O)CS3)NC2=O)cc1 (centres undefined)	0	0.71	0.6	4	-16	-1.1	-3	2.5	2.0	i
COc1ccc(S(=O)(=O)N2CCCC(C(=O)NCCCn3ccnc3)C2)cc1OC (centres undefined)	-5	0.66	0.0	7	6	0.1	-25	1.2	1.7	i
O=C1CSC(c2ccccc2)N1Cc1ccccc1 (centres undefined)	1	x	1.0	-25	-21	-2.2	-6	x	1.3	i
Cc1ccccc1CNC(=O)C1CCCN(c2cnccn2)C1 (centres undefined)	x	0.68	x	1	9	-4.6	-10	-14	0.4	i
CC(=O)N1c2ccc(S(=O)(=O)NCC3CCC(C(=O)NCc4ccco4)CC3)cc2CC1C (centres undefined)	-5	0.68	0.1	-1	0	-1.1	-10	0.8	-2.0	i
COc1cc2oc3ccccc3c(=O)c2cc1OC	11	0.76	0.2	x	x	x	29	i	x	x
CCOc1ccc(Nc2oc(Cc3ccccc3)nc2C#N)cc1	0	0.76	-0.4	x	x	x	38	-2.5	x	x
C/C(=N\NC(=O)C(=O)Nc1cc(C)ccc1C)c1ccncc1	-4	x	0.1	-1	16	-0.9	-3	x	-0.4	i

Three compounds out of the list, sorted by molar mass, largest number first.
SMILES	Beta apoptosis	E coli growth	Bfl-1 A1 inh	rRNA inh HTS	rRNA inh HTS OD600	rRNA inh HTS RFP	T cruzi repl	UCH37 DUB inh	MLL AF4-AF9 inh	FGF22 binding
Cn1cc(C(=O)NCC(=O)Nc2ccccc2Br)cn1	1	0.68	1.4	13	15	0.9	x	2.5	1.1	i
CC(C)C(=O)Nc1ccc(-c2nnc(-c3ccccc3)o2)cc1	-2	0.7	-13	9	18	-0.7	4	-69	0.6	i
O=C1CSC(c2ccccc2)N1Cc1ccccc1 (centres undefined)	1	x	1.0	-25	-21	-2.2	-6	x	1.3	i

Next section.
SMILES	Beta apoptosis	E coli growth	Bfl-1 A1 inh	rRNA inh HTS	rRNA inh HTS OD600	rRNA inh HTS RFP	T cruzi repl	UCH37 DUB inh	MLL AF4-AF9 inh	FGF22 binding
CCN(CC)CCN(CC)Cc1ccccc1Br	-5	0.7	-0.9	-23	-30	-9.4	0	3.5	-43	i
CC(C)(C)N1CC(C(=O)Nc2ccc(S(N)(=O)=O)cc2)CC1=O (centres undefined)	4	0.7	-0.3	4	13	-0.1	-23	6.0	-1.2	i
C=CCNC(=O)CCCCC(=O)NCC=C	-3	0.75	0.5	x	x	x	-7	-1.6	x	x
COC(=O)c1c(NC(=O)c2ccn(C)n2)sc2c1CCC2	2	0.7	-0.1	5	3	6.6	-4	-94	-3.9	i
Cc1csc(CN(C)C(=O)CC2C(=O)NCCN2Cc2ccc(F)c(F)c2)n1 (centres undefined)	-5	0.68	-0.2	4	7	1.1	3	-24	-2.9	i
COc1ccc(NC(=O)CN2CCN(CC(=O)Nc3ccccc3F)CC2)c(OC)c1	-3	0.78	-1.3	x	x	x	30	5.9	x	x
Brc1ccc(C=Nc2ccc3c(c2)OCCOCCOCCO3)s1	1	0.73	1.4	-3	1	3.0	-6	8.1	6.0	i
O=C(NCc1ccccc1CN1CCCC1)c1ccc(Cl)c(S(=O)(=O)N2CCCC2)c1	x	0.69	x	6	4	2.7	x	2.1	3.6	i
CN(C)c1ccc(C2N(c3ccc(F)cc3)C(=O)C3CCCN32)cc1 (centres undefined)	-4	0.76	0.7	17	19	0.0	-6	6.8	-1.2	i
O=C(Cn1[nH]c(=O)c2ccccc2c1=O)Nc1cccnc1	-1	0.71	0.0	12	9	-0.4	-24	3.1	0.1	+
CC(=O)Nc1nc(-c2ccccc2)nc(-c2ccccc2OC(C)=O)n1	3	0.67	-0.8	-15	-12	1.0	7	0.6	6.4	i
COc1ccc(NC(=O)C(Sc2ccccc2)c2ccccc2)c(OC)c1 (centres undefined)	1	x	1.1	x	x	x	17	4.5	x	x
N#C/C(=C(/O)CSc1ccccc1C(=O)O)c1nc2ccccc2s1	x	0.69	-0.2	x	x	x	-9	21*	x	x
CCN(CC)S(=O)(=O)c1ccc(N2CCCC2)c(NC(=O)c2ccccc2OC)c1	2	0.7	0.1	-21*	-12*	6.4*	20	4.5	-11	i
COc1ccc(CCNC(=O)CSc2nc3ncccc3[nH]2)c(OC)c1	0	0.7	1.5	-9	-19	2.7	9	2.0	-1.8	i
COc1ccccc1NS(=O)(=O)c1ccc(-c2cnc(C3CC3)o2)cc1	16	0.71	0.4	-14	-39	-3.3	-6	3.4	1.7	i
O=C(Oc1ccc(Cl)cc1)N1CCOCC1	-2	0.65	0.4	0	6	-1.1	-2	5.5	-3.0	i
O=S(=O)(Nc1nc(SCc2ccc(Cl)cc2)n[nH]1)c1ccc(F)cc1	-4	0.65	-0.3	-37	-69	1.4	13	4.7	-1.0	i
Cc1ccc(C(=O)NNC(=O)c2ccncc2)cc1C	x	0.7	-0.3	3	4	-3.6	-10	3.9	1.2	i
OCCNc1nc2ccccc2n1CC(O)c1ccccc1 (centres undefined)	0	0.73	1.1	0	8	-2.4	7	-1.2	0.3	x
Cc1ccccc1NC(=O)NC1(C(=O)NCC2CCCO2)CCCCC1 (centres undefined)	x	0.56	2.7	6	12	2.8	-14	2.9	-2.0	i
CC(Sc1nnc(N)s1)C(=O)c1c(N)n(C)c(=O)n(C)c1=O (centres undefined)	x	0.72	x	7	12	-1.0	x	4.1	-10	i
Cc1cccc(NS(=O)(=O)c2cc3c4c(c2)CCC(=O)N4CCC3)c1	8	0.63	0.0	-14	-23	0.0	3	2.0	-2.1	i
Cc1ccc(C(C(=O)NC2CCCCC2)N2CCN(C(=O)c3ccco3)CC2)cc1 (centres undefined)	2	0.72	-0.6	x	x	x	0	-1.9	x	x
Cc1cc(C)c2nc(SCC(=O)N(C)C3CCS(=O)(=O)C3)cc(C)c2c1 (centres undefined)	-2	0.73	0.5	19	11	4.1	29	2.6	-3.9	i
(listing goes on)
SMILES	Beta apoptosis	E coli growth	Bfl-1 A1 inh	rRNA inh HTS	rRNA inh HTS OD600	rRNA inh HTS RFP	T cruzi repl	UCH37 DUB inh	MLL AF4-AF9 inh	FGF22 binding
COC(=O)c1[nH]c2ccccc2c1NC(=O)CNC1CCCCC1	-7	0.69	-0.1	x	x	x	6	-5.5	x	x
Cc1cc(C)cc(NC(=O)CSc2ccc(-c3cccs3)nn2)c1	-8	x	-0.5	-9	-8	-5.1	8	x	-5.3	i
COc1ccc(CCCNC(=O)C2CCC(=O)N(CC3CCCCC3)C2)cc1 (centres undefined)	3	0.68	-0.2	0	-17	1.2	-8	5.8	0.6	i
Cc1cc(C)cc(NC(=O)Cn2nnc(C(=O)NCc3ccc4c(c3)OCO4)c2N)c1	54	0.63	0.3	2	2	-0.3	4	1.0	-14	i
Cc1ccc(C)c(CS(=O)(=O)c2cn(CC(=O)N3CCCCC3)c3ccccc23)c1	x	0.68	0.4	x	x	x	24	0.5	x	x
COC(=O)/C=C1\C(=O)N(c2nc3ccccc3s2)C(=S)N1c1ccc(F)cc1	3	0.69	0.3	5	9	-1.3	-9	-0.3	x	x
COCCn1cc(C(=O)NCCCOC(C)C)c2c3ccccc3n(C)c2c1=O	-4	0.69	0.6	7	8	1.6	7	-86	6.1	i
CC(C)N(Cc1ccccc1)C(=O)C1CCN(c2ncnc3c2nc2n3CCCCC2)CC1	-3	0.69	0.8	-26	-26	-2.4	15	2.3	-1.9	i
O=C(Nc1cccc2ccccc12)NC1CCS(=O)(=O)C1 (centres undefined)	-2	0.68	0.5	x	x	x	-2	3.8	x	x
Cc1ccc(C(=O)N2CCC(n3nccc3NC(=O)Nc3cccc(F)c3)CC2)cn1	-6	0.69	-0.5	15	11	0.5	-9	0.8	-11	i
O=C1Nc2ccc(Br)cc2C12OCCO2	-16	0.65	0.1	1	2	-1.7	-2	3.1	-10	i
CCC1S/C(=N/S(=O)(=O)c2ccc(N)cc2)NC1=O (centres undefined)	x	0.72	x	16	9	0.9	x	-1.4	-0.7	i
C=CCNC(=O)c1ccc2c(c1)N(CC)C(=O)c1ccccc1S2	-5	0.67	0.3	0	-11	1.4	-5	0.3	3.9	i
CC(C)CCN1CCN(Cc2ccon2)CC1CCO (centres undefined)	-3	0.7	-1.0	17	1	0.9	-1	5.2	-0.1	i
CN(C(=O)CCCN1CCCC1=O)C1CCCN(Cc2ccccc2F)C1 (centres undefined)	x	0.67	x	4	6	-0.5	7	1.9	-0.4	i
